# Screening data from PubChem.
# Menin-MLL FL inh: displaces fluorescein MLL peptide from human menin; Fluorescence polarization, fluorescein-MLL peptide displacement from menin; FP activity change, % at 61.4 µM; 290,000 tested, under 10 active; AID 1766; inconclusive = falling polarisation curve, or a change in total fluorescence; inactive = total fluorescence flat and polarisation flat or rising; no compound was filed as active; the % refers to the polarisation; negative = inhibition;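 further: % of control where 0% means no effect; inhibitors lower the polarisation; unlabelled MLL peptide was the positive control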
# TRPV1 PAM: potentiators of human vanilloid receptor 1 (TRPV1) | Q8NER1 | TRPV1-expressing cells, Fluo-8 calcium influx, capsaicin EC20 potentiation; host cell line not named in the record; control for the full effect not named in the record | potentiation, % at 8.33 µM | 320,000 compounds, 0.02% hits | AID 540277; active means potentiation above 80%; inconclusive means 30% to 80%; inactive means below 30%; further: 0% is about no effect
#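 TRPV1-expressing cells were cultured overnight at 35.5C and loaded with Fluo-8 calcium dye for 40 to 90 min at room temperature. After a 10 s baseline, compound was added and calcium influx was read kinetically for 3 min (ex 480/em 520 nm).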
# Sfp PPTase inh: inhibitors of Bacillus subtilis Sfp phosphopantetheinyl transferase; 310,000 compounds, 3.5% hits; Biochemical Sfp PPTase activity, qHTS; Potency, µM, for inactives: max response, negative = inhibition, most hits filed as inhibitors; AID 1490; active means well fitted inhibition curve with a large enough effect; inconclusive means small, poorly fitted or top-dose-only effect, or another doubt; inactive means no such curve, though single readings can be large or run the other way;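 further: the enzyme is Sfp with the accession as filed and its product quenches rhodamine fluorescence; potency means the concentration at half of the fitted maximal effect; 0% = enzyme reaction without inhibitor and -100% = no enzyme wells; top concentration of the series not given in the record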
#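 With Hepes-Na pH 7.6 buffer containing 10 mM MgCl2, Sfp (15 nM) modified BHQ-2-YbbR (12.5 uM) using rhodamine-CoA (5 uM). Two reads 30 minutes apart at 525/598 nm yielded each well's rate.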
# ClpP mod: qHTS Assay for Activators of ClpP; ATP-dependent Clp protease proteolytic subunit (Bacillus subtilis (strain 168)), P80244; purified B. subtilis ClpP, FRET peptide cleavage, 20 min; Potency, µM (series often up to 57.5 µM), inactives show at the top dose activity change, negative = active; 340,000 compounds, 1.9% hits; active = well fitted falling curve with a large enough effect; inconclusive = small, poorly fitted or top-dose-only effect; inactive = no such curve, though single readings can be large or run the other way; further: potency means the concentration at half of the fitted maximal effect; the source files actives as falling curves though it sought activators and does not explain the sign; nearly all actives have a fitted effect of over 65% in size; many hits overshoot -100%
# Target sequence (P80244 whole entry, looked up): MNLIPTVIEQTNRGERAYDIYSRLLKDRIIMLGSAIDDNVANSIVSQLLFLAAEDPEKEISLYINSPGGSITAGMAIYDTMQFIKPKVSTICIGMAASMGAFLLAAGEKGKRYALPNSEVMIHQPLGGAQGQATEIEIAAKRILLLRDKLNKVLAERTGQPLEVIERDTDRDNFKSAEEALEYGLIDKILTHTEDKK
#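 Buffer: 100 mM Tris/HCl pH8, 100 mM KCl, 0.05% low protease BSA, 2.5% glycerol, 0.01% Tween-20. ClpP 10 microg/mL final; 20 min RT; delta FRET normalized to ADEP and DMSO controls.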
# TRPML1 ag: activates the human TRPML1 channel; Q9GZU1; TRPML1-expressing cells, Ca2+ dye fluorescence, FDSS; host cell line not named in the record; reference of the full effect not given here; activation, % (no concentration beside the values); 410,000 compounds, 0.12% hits; in the data active = activation above about 50%; inconclusive = about 30% to 50%; inactive = below about 30%; further: 0% is about no effect; the text of the record puts the active cut at 80%
# Target sequence (Q9GZU1 whole entry, looked up): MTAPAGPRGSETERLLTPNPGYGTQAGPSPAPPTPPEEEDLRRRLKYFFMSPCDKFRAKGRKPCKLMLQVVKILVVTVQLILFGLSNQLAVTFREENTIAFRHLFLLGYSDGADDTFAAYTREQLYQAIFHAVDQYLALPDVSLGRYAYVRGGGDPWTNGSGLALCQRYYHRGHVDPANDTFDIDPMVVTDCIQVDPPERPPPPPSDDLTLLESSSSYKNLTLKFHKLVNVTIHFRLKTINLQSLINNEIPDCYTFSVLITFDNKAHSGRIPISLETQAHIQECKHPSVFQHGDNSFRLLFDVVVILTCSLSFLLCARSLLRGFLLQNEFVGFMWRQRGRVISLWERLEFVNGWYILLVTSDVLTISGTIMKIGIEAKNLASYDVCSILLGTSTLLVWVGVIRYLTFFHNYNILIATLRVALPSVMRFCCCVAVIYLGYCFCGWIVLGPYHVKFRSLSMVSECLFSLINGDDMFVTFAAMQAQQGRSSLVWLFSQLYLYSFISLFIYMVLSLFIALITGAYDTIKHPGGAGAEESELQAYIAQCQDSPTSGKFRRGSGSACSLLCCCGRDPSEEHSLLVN
#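 TRPML1-DL cells, Tet-induced overnight (~16 h, 37 degrees C), loaded 45-90 min at room temperature with Ca8 no-wash calcium dye plus quencher. FDSS fluorescence: 10 s baseline, compound pin-transfer, 110 s agonist read, then EC80 54-4 (4uM final) and 110 s antagonist read.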
# PINK1 modulator: modulators of PINK1 expression. PINK1 immunofluorescence, high-content cytometry, 24 h. Potency, µM (highest dose often 76.6 µM), for the others: at the highest dose activation (PINK1 increase), actives largely listed as activators. 410,000 compounds, 0.2% hits; active = well fitted activation curve with a large enough effect; inconclusive = small, poorly fitted or top-dose-only effect; inactive = flat fitted curve, though single readings scatter; cell line not stated here;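 further: potency means the concentration at half of the fitted maximal effect; % of control where 0% means no effect; nearly all actives have a fitted effect of over 65% in size; a mitochondrial uncoupler was the plate control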
#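 PINK1 protein, normally rapidly degraded, was detected by immunofluorescence after 24 hour compound treatment of a stable cell line. Titration data (5 concentrations) came from laser-scanning cytometry, with CCCP-treated wells as controls.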
# TRPML1 blocker: blocks the human TRPML1 channel. 390,000 compounds, 0.02% hits. TRPML1-inducible cells, Ca2+ dye fluorescence, FDSS; active compounds read low; inhibition of EC80 agonist-evoked calcium signal. Q9GZU1. AID 624415. activity change, negative = inhibition, % (test concentration not listed); in the data active means activity change below about -50%; inconclusive means about -30% to -50%; inactive means above about -30%;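 further: stimulus is agonist 54-4 at its EC80 concentration; on the % scale 0 is the no-effect control and ±100 the full control effect; compound concentration not given in the record; the text of the record puts the active cut at -80%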
#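 Tet-induced TRPML1-DL cells loaded with Ca8 no-wash calcium dye were read kinetically on FDSS. Compound addition was followed by EC80 agonist 54-4 (4 uM final); inhibition was read over 110 s.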
# * hit, by the source's call; ? = inconclusive; · = not tested or not shown; [ ] = remark or other dose.
SMILES,Menin-MLL FL inh,TRPV1 PAM,Sfp PPTase inh,ClpP mod,TRPML1 ag,PINK1 modulator,TRPML1 blocker
CC(C)c1nc2cc(C(=O)NC(c3cccnc3)C(F)(F)F)ccc2o1 (centres undefined),·,-2.9,14.5%,0.7%,0.8,0.7%,2.6
Cc1cccc(NC(=O)CCC(=O)OCc2ccc(Br)cc2)c1,-0.1,-18.7,-1.9%,1.3%,0.7,-1.0%,-12.1
N#C/C(=C\c1cn(Cc2ccccc2C#N)c2ccccc12)C(=O)NCc1cccs1,4.7,?,6.0%,·,·,·,·
CCCCN(C)CCNC(=O)c1ccc2c(c1)NC(=O)CN2,·,·,·,3.4%,0.2,0.8%,-7.1
CCN(CC(=O)NC)S(=O)(=O)c1ccc(C)cc1,3.9,9.0,2.6%,?,-0.4,-3.4%,-16.1
CCOC(=O)c1ccc(NC(=O)C2C3CCC(C3)C2C(=O)O)cc1 (centres undefined),-1.1,-2.5,-3.9%,1.5%,-0.7,4.3%,5.3
CCCCOc1ccc(C(=O)NCC(=O)NCC(c2ccc(OC)cc2)N2CCOCC2)cc1 (centres undefined),·,3.2,·,-3.4%,-0.4,-1.5%,-7.5
O=C(C1CCCCC1)N1CCCn2c1nc1ccccc12,0.0,-14.5,0.2%,-0.1%,1.9,0.9%,8.1
CCCCN(CC)C(=O)CCCn1c(=O)c2cccn2c2ccccc21,·,·,·,-5.3%,3.6,-0.6%,5.7
O=C(Nc1ccc(Cl)cc1C(F)(F)F)c1cc(S(=O)(=O)N2CCOCC2)ccc1F,·,·,·,0.2%,-0.6,-0.5%,9.0
O=C(COc1ccc(Br)cc1)N(Cc1ccco1)C1CCS(=O)(=O)C1 (centres undefined),·,3.3,17.6%,0.7%,-0.8,-0.9%,-4.0
O=C(NCC1CCCO1)c1sc2cc(Cl)ccc2c1Cl (centres undefined),4.4,10.7,-3.2%,-1.5%,-0.4,-1.4%,-0.5
COc1ccc(Cc2nnc(SCC(=O)Nc3ccccc3)[nH]c2=O)cc1,·,-6.8,·,·,-0.5,1.1%,-10.5
CC1=C(C(=O)Nc2ccccc2)C(c2ccncc2)n2nc(SCc3ccccc3Cl)nc2N1 (centres undefined),·,·,·,-18.9%,1.2,0.6%,7.4
COc1ccc(Br)cc1CNC(=O)C1CCCN(S(=O)(=O)N2CCC(C)CC2)C1 (centres undefined),·,·,·,-1.0%,1.3,1.9%,14.4
CC(=O)n1cc(N(C(=O)CCl)c2ccc([N+](=O)[O-])cc2)c2ccccc21,0.1,5.4,10.7%,·,1.0,-0.9%,7.6
N#Cc1ccc(/C=N/NC(=O)c2cccc(S(=O)(=O)N3CCOCC3)c2)cc1,-1.9,-8.3,8.5%,·,-0.3,7.9%,-5.7
CCCCN(C(=O)CSc1nncn1-c1ccccc1)c1c(N)n(Cc2ccccc2)c(=O)[nH]c1=O,-2.2,-0.3,2.6%,-2.6%,0.5,0.5%,-4.8
CC1(C)CC(=O)C(CC(=O)NC2CCCc3ccccc32)C(=O)C1 (centres undefined),-0.1,0.0,9.1%,-0.5%,-1.5,-1.6%,-1.9
O=C(O)c1ccccc1-c1ccccc1C(=O)Nc1ccc2c(c1)C(=O)c1ccccc1-2,·,·,·,·,-0.1,0.3%,24.1
N#Cc1nc(Cc2ccccc2)oc1NCCCn1ccnc1,-5.0,1.3,14.8%,-0.5%,-0.1,·,-1.3
Cc1ccc(C2=NOC(C)(c3nnc(-c4ccc(F)cc4)o3)C2)cc1 (centres undefined),2.1,-9.9,-11.2%,-1.9%,1.5,-0.7%,-4.0
CC1Cc2ccccc2N1C(=O)CSc1nnnn1-c1ccc2c(c1)OCCO2 (centres undefined),6.2,-26.4,10.9%,-2.3%,1.5,0.6%[38.3 µM],14.7
COc1cc(NC(=O)COC(=O)c2[nH]c(C)c(C(C)=O)c2C)cc(OC)c1,·,·,·,·,-1.2,0.3%,5.6
CC(=O)c1ccccc1OCC(O)Cn1c(CO)nc2ccccc21 (centres undefined),·,·,·,-10.9%,0.8,1.9%,2.7
Cc1nn2c(=O)cc(COC(=O)c3cccc(NC(=O)COc4ccccc4C)c3)nc2s1,·,·,·,4.5%,2.6,2.6%,-15.7
O=C1CCC([N+](=O)[O-])C(c2cccc(Cl)c2Cl)N1 (centres undefined),-5.2,-9.9,-6.5%,-1.7%,2.0,0.6%,20.2
CCN1C(=O)C(CC(=O)Nc2ccccc2)S/C1=N\c1ccccn1 (centres undefined),-0.7,-12.5,19.6%,0.0%,-0.2,6.0%,-13.2
Cc1cc(NS(=O)(=O)c2ccc(NC(=O)c3ccco3)cc2)no1,5.2,-0.8,11.6%,-0.5%,-0.6,-2.6%,20.3
O=C(CSc1nnc(-c2ccc(S(=O)(=O)N3CCCC3)cc2)o1)NCc1ccco1,-0.1,-8.5,?,0.7%,0.4,?,-5.7
Nc1nc(C23CC4CCC(CC(C4)C2)C3)cs1,5.6,9.0,4.9%,-1.5%,2.8,13.5%,-5.1
COc1cc(CCC(=O)NCc2ccc(S(N)(=O)=O)cc2)cc(OC)c1OC,2.0,18.5,6.5%,·,1.1,0.7%,15.5
O=C(Nc1ccccc1F)NC1CCN(Cc2nnnn2Cc2ccc(F)cc2)CC1,5.1,5.0,-0.5%,-0.1%,-1.5,-4.9%,-7.7
COc1ccc(OC)c(S(=O)(=O)N(C)CC(=O)Nc2ccc3c(c2)OCCO3)c1,0.1,12.1,15.2%,0.8%,-0.2,1.1%,-4.5
O=C(NCCc1ccccc1)C1CCN(C(=O)c2sccc2-n2cccc2)CC1,0.2,-3.9,5.2%,-0.7%,-0.4,1.5%,11.5
COc1ccc(C)cc1NC(=O)NCc1ccc(F)cc1,-2.3,-4.9,5.5%,-1.0%,0.4,-0.6%,10.3
CCc1ccccc1NC(=O)Cn1nnc(C(=O)OC)c1C(=O)OC,·,·,·,-0.2%,1.0,-0.1%,2.9
CCOC(=O)c1cc2[nH]c3ccccc3c2[n+](-c2ccc([N+](=O)[O-])cc2)c1C,8.6,-6.9,15.4%,1.7%,1.8,1.3%,-5.6
COCCNc1nnc(SCC(=O)NC(=O)c2ccccc2)s1,·,1.0,·,·,0.4,-1.5%,8.0
Cc1ccsc1/C=N\NC(=O)c1ccc2c(c1)OCO2,4.1,-14.0,8.9%,-18.8%,-0.1,-0.4%,-18.3
COC(=O)c1cccc(NC(=O)c2cccc(OC)c2)c1,0.3,5.3,3.6%,0.5%,-0.6,-0.1%,4.3
O=C1C=C(c2ccc(O)cc2)C[C@@H](c2ccc3c(c2)OCO3)C1,·,-2.7,·,-4.7%,2.0,-0.6%,9.1
Cc1nn(Cc2c(Cl)cccc2Cl)c(C)c1NC(=O)c1cc(C(C)C)on1,1.6,·,28.1%,1.8%,0.1,13.3%,-2.7
C/C(=N\NC(=O)c1sccc1C)c1ccncc1,·,-14.1,11.2%,-1.8%,3.3,-0.6%,38.1
NC(=O)C1CCN(C(=O)C2CCC(=O)N(C3CCCCCC3)C2)CC1 (centres undefined),·,3.7,23.1%,1.3%,-0.1,1.8%,0.3
COc1ccccc1CCC(=O)OCC(=O)N1CCN(S(=O)(=O)c2ccc(C)cc2C)CC1,·,-9.0,·,·,0.1,13.6%,1.6
CCOc1ccccc1NC(=O)c1nc(S(=O)(=O)Cc2ccccc2)ncc1Cl,·,-6.2,-9.0%,0.2%,0.5,-0.9%,-6.7
CCc1ccc(NC(=O)CSc2nc3ccccc3c(=O)n2CCC(=O)NC2CCCCC2)cc1,·,·,·,-0.1%,-0.2,4.4%,-2.1
CCCCc1c(-c2ccc(F)cc2)ncn1CCc1ccccc1OC,·,·,·,1.4%,0.4,?,·
Cc1nc2c3c(sc2c(=O)[nH]1)NC(=O)CC3c1ccccc1Cl (centres undefined),3.0,-0.8,1.0%,-2.4%,0.9,3.4%,13.7
Cc1cccc(CN2CCC(C(=O)Nc3ccc(-n4nc(C)cc4C)cc3)CC2)n1,-2.9,18.4,9.2%,?,0.8,-3.6%,35.1
Cc1noc(C)c1C(=O)N1CCN(CCc2ccccc2)CC1,7.4,0.5,-6.5%,1.6%,-0.4,3.3%[38.3 µM],-1.4
N#CCSc1nccc(/C=C/c2ccccc2)n1,-0.3,9.4,6.9%,·,0.8,1.2%,4.6
Cc1cc2oc(C(=O)Nc3cccc(-c4nc5ccccc5o4)c3)c(C)c2cc1Cl,·,·,·,1.5%,-0.5,2.8%,-14.6
O=C1CC(c2ccccc2)CC(O)=C1C=NCCN1CCN(C(=O)Nc2ccccc2)CC1 (centres undefined),1.8,-12.8,7.7%,2.9%,0.2,-1.5%,-1.1
COC(=O)Nc1ncc(CN2CCC(c3ccccc3)CC2)s1,2.6,-4.0,-11.1%,0.4%,0.4,0.0%,-7.6
O=C(CSc1nccn1-c1cccc(Cl)c1)Nc1ccc2c(c1)OCCO2,-1.4,-10.7,-3.4%,2.3%,0.6,-1.1%,3.4
CC(=O)NCCOc1nc(N(C)C)nc(N2CCCCC2)n1,-1.6,-32.9,5.6%,-0.7%,0.3,1.0%,-4.4
CN(C)C(=O)Cn1cnc2c(cnn2-c2ccccc2Cl)c1=O,1.1,7.0,14.6%,-2.4%,0.1,1.4%,9.6
CCN(CC)S(=O)(=O)c1ccc(S(=O)(=O)N(CC(=O)Nc2ccccc2)CC2CCCO2)cc1 (centres undefined),·,·,·,-0.6%,0.4,-4.5%[38.3 µM],9.7
# Later entries:
SMILES,Menin-MLL FL inh,TRPV1 PAM,Sfp PPTase inh,ClpP mod,TRPML1 ag,PINK1 modulator,TRPML1 blocker
COc1ccc(S(=O)(=O)N2CCN=C2SCc2cccnc2)cc1,-3.3,-30.8,10.9%,·,0.1,-0.1%,3.6
CCC(C)(C(=O)NC1CCCC1)N(Cc1cccs1)C(=O)c1ccc2c(c1)OCO2 (centres undefined),6.8,4.5,-2.5%,-1.6%,0.1,-0.7%,-9.6
COc1ccc(CCNC(=O)COc2ccc(S(=O)(=O)N3CCCC3)cc2)cc1,0.1,6.2,2.3%,·,0.6,0.9%,6.4
CCc1cccc(NC(=O)CCc2nc3cccnc3n2Cc2ccc(OC)cc2)c1,·,·,·,1.5%,2.5,7.5%,6.7
